SARS PLpro yeast: inhibitors of SARS-CoV papain-like protease in yeast; S. cerevisiae expressing SARS-CoV PLpro, growth rescue; control for the full effect not named in the record; Potency, µM (highest dose often 32.9 µM), inactives show at the highest dose activity, positive = growth rescue; 330,000 tested, 0.19% active; active means well fitted rising curve with a large enough effect; inconclusive means small, poorly fitted or top-dose-only effect; inactive means no such curve, though single readings can be large or run the other way; also: 0% is about no effect; nearly all actives have a fitted effect of over 55% in size; growth read by luminescence after 48 h
Cruzain inh Det: blocks cruzain activity in presence of Triton detergent. purified cruzain, Z-FR-AMC fluorescence, 0.01% Triton. P25779. AID 1478. Potency, µM, for inactives: max response, negative = inhibition, actives largely listed as inhibitors. 200,000 tested, 0.43% active;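 also: plate controls were neutral wells for no effect and buffer without enzyme for full effect; nearly all actives have a fitted effect of over 40% in size; top concentration of the series not given in the record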
Target sequence (P25779 123-467 limits assumed): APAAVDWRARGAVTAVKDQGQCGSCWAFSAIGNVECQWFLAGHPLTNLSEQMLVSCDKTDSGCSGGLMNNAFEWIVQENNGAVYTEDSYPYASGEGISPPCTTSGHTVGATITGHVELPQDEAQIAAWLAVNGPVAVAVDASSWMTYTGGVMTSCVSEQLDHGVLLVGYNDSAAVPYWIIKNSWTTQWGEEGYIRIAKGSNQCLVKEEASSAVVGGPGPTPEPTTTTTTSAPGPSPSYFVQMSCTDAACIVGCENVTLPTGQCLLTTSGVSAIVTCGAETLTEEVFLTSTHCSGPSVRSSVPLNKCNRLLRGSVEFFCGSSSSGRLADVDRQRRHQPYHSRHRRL
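Detergent-containing run (0.01% Triton X-100) in acetate buffer pH 5.5 with 5 mM DTT: enzyme at 1.5 nM final, 15 min compound preincubation at room temperature, then 2 uM Z-FR-AMC substrate. Activity taken as 60 s fluorescence increase at 360/450 nm.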
LASV entry inh: inhibitors of Lassa virus binding or cell entry. Lassa virus pseudotype entry inhibition, cell reporter; control for the full effect not named in the record. Potency, µM (doses to about 37.9 µM), inactives show at the highest dose activity change, negative = inhibition, usual class: inhibitors. 300,000 tested, 1.2% active; active means well fitted inhibition curve with a large enough effect; inconclusive means small, poorly fitted or top-dose-only effect, or effect the other way; inactive means flat fitted curve, though single readings scatter; tested in HEK293 cells; also: % is scaled to controls: 0 for no effect and ±100 for the full control effect; nearly all actives have a fitted effect of over 50% in size; luciferase read-out
NS1 function inh: blocks influenza NS1 protein function | 270,000 tested, 0.4% active | S. cerevisiae slowed by influenza A NS1, growth recovery by OD600 | Potency, µM (top dose mostly 46.1 µM), without a hit: at the highest dose activity, positive = more growth; active means well fitted rising curve with a large enough effect; inconclusive means small, poorly fitted or top-dose-only effect; inactive means no such curve, though single readings can be large or run the other way; also: nearly all actives have a fitted effect of over 50% in size
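Read-out: OD600 growth recovery of NS1-expressing budding yeast. Cells grown overnight at 30C in -URA glucose medium, washed, resuspended and diluted 1:100 in 2% galactose assay medium, pH 6.0. Same strain lacking NS1 served as positive control.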
2A StopGo: lowers the luciferase signal of an FMDV 2A StopGo reporter; Potency, µM (titrated, usually from 57.9 µM), for the others: at the top dose signal change, negative = less light; human cells with a luciferase reporter of 2A StopGo recoding; control for the full effect not named in the record; 410,000 tested, 1.2% active; AID 1159524; active = well fitted falling curve with a large enough effect; inconclusive = small, poorly fitted or top-dose-only effect; inactive = no such curve, though single readings can be large or run the other way; tested in HEK293T cells; also: % is scaled to controls: 0 for no effect and ±100 for the full control effect; nearly all actives have a fitted effect of over 45% in size; luciferase light after 4 h
MARV entry inh: blocks Marburg virus binding to or entry into cells; AID 540276; 300,000 tested, 1.8% active; Potency, µM (highest dose often 37.8 µM), inactives show at the highest dose activity change, negative = inhibition, usual class: inhibitors; Marburg virus pseudotyped entry inhibition, cell reporter; control for the full effect not named in the record; about a third of the inactives were read at about 46 µM; active = well fitted inhibition curve with a large enough effect; inconclusive = small, poorly fitted or top-dose-only effect, or effect the other way; inactive = flat fitted curve, though single readings scatter; tested in HEK293 cells; about a fifth of its hits are not listed in these tables; also: % is scaled to controls: 0 for no effect and ±100 for the full control effect; luciferase read-out
RE007 growth inh: less growth of the S. pombe RE007 Vpr strain; AID 651644; S. pombe RE007 Vpr strain, BacTiter-Glo ATP luminescence, 24 h; control for the full effect not named in the record; 360,000 tested, 0.21% active; Potency, µM (highest dose often 92.2 µM), inactives show at the top dose activity change, negative = less growth; active = well fitted falling curve with a large enough effect; inconclusive = small, poorly fitted or top-dose-only effect; inactive = no such curve, though single readings can be large or run the other way;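 also: % is scaled to controls: 0 for no effect and ±100 for the full control effect; nearly all actives have a fitted effect of over 50% in size; the assay follows cell death caused by Vpr and the record does not say whether a fall means rescue or toxicity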
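Fission yeast strain RE007, carrying one chromosomally integrated HIV-1 vpr copy, was seeded at OD 0.01 in PMG+AL medium with 23 nL pinned compound. After 24 h at 30 °C and 99% humidity, viability was read by BacTiter-Glo luminescence.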
Cruzain inh noDet: blocks cruzain activity in detergent-free assay | P25779 | purified cruzain, Z-FR-AMC fluorescence, no detergent | Potency, µM, without a hit: max response, negative = inhibition, actives largely listed as inhibitors | 200,000 tested, 2.3% active;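 also: plate controls were enzyme without inhibitor for no effect and buffer without enzyme for full effect; nearly all actives have a fitted effect of over 40% in size; top concentration of the series not given in the record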
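Detergent-free condition (0.00005% Triton X-100) in acetate buffer pH 5.5 with DTT. 1.5 nM enzyme and compound were pre-mixed 15 min, then 2 uM Z-FR-AMC substrate added; reaction progress from fluorescence change between first and third reads (60 s).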
Active calls of the source: *; ? = inconclusive; . = not tested or not shown; & = joins results of further samples; [ ] = another dose, or the depositor's remark. Unless noted, calls follow the shape of the dose curve; as a rule, active = well fitted curve in the direction sought with a large enough effect; inconclusive = small, poorly fitted or top-dose-only effect, or another doubt; inactive = no such curve, though single readings can be large; an effect the other way counts as inactive or inconclusive. Potency is read from the fitted curve at half-maximal effect.

Start of the data: the first four compounds as a preview:
The line under a structure holds: SARS PLpro yeast, Cruzain inh Det, LASV entry inh, NS1 function inh, 2A StopGo, MARV entry inh, RE007 growth inh, Cruzain inh noDet
#1 CC1CCCCN1C(=O)CSc1nnc(-c2ccccc2Cl)o1 (configuration not stated)
→ ., -4.6%, ?, ., 54%[activator], ?, ., -13%
#2 Cn1nc(-c2ccc(N3CCCCC3)c(NC(=O)c3ccco3)c2)c2ccccc2c1=O
→ 2%, -6.0%, ?, -88%, 0%, ?, 7%, -7%
#3 CC(=O)N1CCOc2ccc(S(=O)(=O)NCCc3ccc(Cl)cc3)cc21
→ 8%, ., ., 8%, 24%, ., -1%, .
#4 CCCCNC(=O)CC1C(=O)N(Cc2ccccc2)C(C)c2nc3ccccc3n21 (configuration not stated)
→ 3%, -23%, -18%, -5%, 28%, 3%, 12%, 13µM*

Results (from the top)
The line under a structure holds: SARS PLpro yeast, Cruzain inh Det, LASV entry inh, NS1 function inh, 2A StopGo, MARV entry inh, RE007 growth inh, Cruzain inh noDet
#1 CC1CCCCN1C(=O)CSc1nnc(-c2ccccc2Cl)o1 (configuration not stated)
→ ., -4.6%, ?, ., 54%[activator], ?, ., -13%
#2 Cn1nc(-c2ccc(N3CCCCC3)c(NC(=O)c3ccco3)c2)c2ccccc2c1=O
→ 2%, -6.0%, ?, -88%, 0%, ?, 7%, -7%
#3 CC(=O)N1CCOc2ccc(S(=O)(=O)NCCc3ccc(Cl)cc3)cc21
→ 8%, ., ., 8%, 24%, ., -1%, .
#4 CCCCNC(=O)CC1C(=O)N(Cc2ccccc2)C(C)c2nc3ccccc3n21 (configuration not stated)
→ 3%, -23%, -18%, -5%, 28%, 3%, 12%, 13µM*
#5 COc1ccc(CCNC(=O)C(=O)NCC2CCCN2S(=O)(=O)c2cccs2)cc1OC (configuration not stated)
→ -5%, ., ?, ., -24%, ?, 2%, .
#6 COc1ccccc1P(=O)(c1ccccc1)c1ccc([N+](=O)[O-])cc1 (configuration not stated)
→ -3%, ., 6%[46.1 µM], 2%, -7%, -20%[46.1 µM], 7%, .
#7 COc1ccc(NC(=O)Cn2cnc3sc(C)c(S(=O)(=O)N4CCOCC4)c3c2=O)c(OC)c1
→ 0%, ., 11%, ., 9%, ?, 29%, .
#8 CCOC(=O)CSc1nnc(Cc2ccccc2)n1-c1ccc(C)cc1
→ -6%, -4.5%, ?, -1%, 0%, -2%, 5%, 25%
#9 CC(C)NC(=O)CSc1nc2ccccc2nc1N1CCCCC1
→ ., -3.7%, -5%[46.1 µM], ., -11%, -1%[46.1 µM], ., -1%
#10 O=C(O)c1cc(NC(=O)c2ccccc2F)cc(NC(=O)c2ccccc2F)c1
→ 2%, ., 5%[46.1 µM], 14%, -8%, -9%[46.1 µM], 0%, .
#11 CC(=O)Nc1ccc(NC(=O)C2(C)CC2(Cl)Cl)cc1 (configuration not stated)
→ 1%, ., ?, ., 5%, 1%, -8%, .
#12 Cc1cccc(NC(=O)CCc2ccc(C)o2)c1
→ -2%, 3.8%, 15%, -12%, 21%, -7%, -3%, 1%
#13 CCCCc1nc(SCC(=O)Nc2nnc(CCCC)s2)n[nH]1
→ 0%, ., ., 4%, 10%, ., -6%, .
#14 Cc1noc(C)c1COc1ccc(C(=O)N2CCN(S(=O)(=O)c3ccc(F)cc3)CC2)cc1
→ ., ., -16%, ., -23%, -27%, 12%, .
#15 Cc1nn(-c2ccccn2)c2c1C(c1c(F)cccc1Cl)C1=C(N2)c2ccccc2C1=O (configuration not stated)
→ 19%, -5.6%, -4%, -2%, ., 5%, ., 25µM*
#16 O=C(NCC1CCCN1S(=O)(=O)c1cccs1)c1cccc(F)c1 (configuration not stated)
→ 6%, ., ?, ., 8%, 5%, 0%, .
#17 O=C(C1CCCCN1S(=O)(=O)c1ccccc1[N+](=O)[O-])N1CCCC1 (configuration not stated)
→ -4%, ., ?, ., -10%, -8%[46.1 µM], 6%, .
#18 O=C(COC(=O)c1ccc(N2CCCC2=O)cc1)c1ccc(OC(F)F)cc1
→ 3%, ., ?, 11%, -22%, 4%[46.1 µM], 1%, .
#19 C=C(C)CSc1cc(C)nc2c(-c3ccccc3)c(C)nn12
→ -3%, ., ., -6%, -1%, ., 4%, .
#20 COc1ccc(N=C2SC(CC(=O)Nc3ccc(OC)cc3OC)C(=O)N2C)cc1 (configuration not stated)
→ -2%, -4.4%, -30%, -9%, -17%, 0%, -7%, ?
#21 C(=N\Nc1nncn1/N=C/c1ccco1)/c1ccco1
→ 1%, ., 0%[46.1 µM], -2%, 4%, 27%[46.1 µM], 1%, .
#22 O=C(Nc1cccc(F)c1)C1CCN(C(=O)c2ccccc2Cl)CC1
→ 0%, -4.5%, -11%, -6%, -25%, ?, 7%, 0%
#23 CCN1C(=O)C(=O)N(CC(=O)N(C)CC(=O)Nc2ccccc2Cl)C1=O
→ -2%, ., 12%, ., -13%, ?, -5%, .
#24 Cc1ccc(-n2c(/C=C/c3ccc(Br)s3)nc3ccccc3c2=O)cc1
→ ., 0.9%, 3%[46.1 µM], ., ?, ., ., -11%
#25 COc1ccc(Cl)cc1Nc1nc(C)nc2c1nnn2Cc1ccccc1
→ -1%, ., -2%[46.1 µM], 5%, -14%, 1%[46.1 µM], -12%, .
#26 O=C(Cn1c(=O)nc(-c2ccccc2)c2cc(Cl)ccc21)Nc1ccc(F)c(Cl)c1
→ ., -0.4%, ?, ., 15%, 3%[46.1 µM], ., -9%
#27 CCC(=O)/C=C1/Sc2ccc(OC)cc2N1CCO
→ -1%, ., 12%, -1%, -21%, -10%[46.1 µM], -6%, .
#28 Cc1cc(C(=O)Nc2cccc([N+](=O)[O-])c2C)cs1
→ 1%, ., ., 1%, 28%, ., -14%, .
#29 COc1ccccc1Nc1ncc2c(n1)CCN(CC(C)C)C2
→ ., -1.9%, ?, ., 38%[activator], ., ., -9%
#30 NS(=O)(=O)c1ccc(CCNC(=O)CCn2c(=O)c3cccn3c3cccnc32)cc1
→ ., -0.2%, 9%[46.1 µM], ., -8%, ., ., 16%
#31 C=CCc1cccc2cc(C(=O)NCc3ccc(C(=O)OCC)o3)c(=O)oc12
→ -19%, -25%, 15%, 7%, -18%, -4%, 17%, -3%
#32 CCN1CCN(C(=S)c2ccc(O)cc2)CC1
→ -1%, ., ., -4%, -3%, ., -7%, .
#33 CCc1ccc(NC(=O)CCS(=O)(=O)c2ccc(Br)cc2)cc1
→ 2%, ., ., -2%, -3%, ., 6%, .
#34 Nc1o[nH]c(=O)c1C1CCCCC1
→ ., ., 2%[46.1 µM], ., -5%, 17%[46.1 µM], 5%, .
#35 C=CCNC(=S)NNC(=O)c1ccc(OCC(C)C)cc1
→ -1%, 7.1%, 5%, -1%, -16%, 0%, -9%, 14%
#36 CCC1=Nc2cc(C(=O)NCCc3ccc(OC)c(OC)c3)ccc2Sc2ccccc21
→ ., -3.7%, ?, ., ?, ?, ., ?
#37 COc1ccccc1NC(=O)CSc1nc(=O)n(Cc2ccncc2)c2c1CCCC2
→ ., ., -14%, ., -9%, 26%, -14%, .
#38 O=C(c1ccc(Cl)c(S(=O)(=O)N2CCCC2)c1)N1CCN(c2ncccn2)CC1
→ 0%, ., -10%, 1%, -1%, -3%[14.2 µM], -7%, .
#39 Cc1cc(-c2nnc3n2N=C(C(C)(C)C)CS3)n[nH]1
→ -6%, -0.9%, 2%, -6%, -9%, -8%, 4%, -3%
#40 CN(C(=O)c1ccc(S(=O)(=O)N2CCOCC2)cc1)C1CCS(=O)(=O)C1 (configuration not stated)
→ -1%, ., ?, ., -7%, -2%, -9%, .
#41 O=C1C(=O)N(CCN2CCOCC2)C(c2cccnc2)/C1=C(/O)c1ccc(Cl)cc1 (configuration not stated)
→ 0%, ., 0%[46.1 µM], 5%, -2%, 0%[46.1 µM], -13%, .
#42 CC1=CCC2C(=O)N(c3ccc(C)c(Br)c3)C(=O)C2C1 (configuration not stated)
→ ?, 3.0%, ., 5%, -6%, ., -4%, -2%
#43 Cn1nc(-c2ccccc2)cc1NC(=O)Nc1ccc(F)cc1
→ -1%, ., -2%[46.1 µM], -3%, 27%, -26%[46.1 µM], 10%, .
#44 COc1cccc(C(=O)Oc2c(Sc3ccc(C)cc3)c(C)nn2C(C)(C)C)c1OC
→ ., -8.2%, ?, ., ?, ?, ., -1%
#45 COc1ccc(NC(=O)C2CCN(C(=O)C3CC(=O)N(c4ccc(C)cc4)C3)CC2)c(OC)c1 (configuration not stated)
→ 4%, ., -7%[46.1 µM], 6%, 11%, 15%[46.1 µM], 9%, .
#46 O=C(c1ccc(Br)s1)N1CCN(c2ncccn2)CC1
→ -6%, -0.7%, ?, -1%, -5%, 0%, -1%, 10%
#47 O=C(O)CSCC(=O)NC1CCCc2ccccc21 (configuration not stated)
→ -1%, ., ., -2%, -15%, ., 15%, .
#48 CCOCCCNC(=O)c1ccc2nc(-c3ccc(OC)c(OC)c3)c(-c3ccc(OC)c(OC)c3)nc2c1
→ 0%, ., ?, -3%, -3%, ?, -8%, .
#49 COc1ccccc1/C=N/NC(=O)c1ccc(NC(=O)c2ccccc2Br)cc1
→ -22%, -8.7%, 3%, 13%, -27%, 7%, -6%, ?
#50 Cn1c(=O)c2c(ncn2CC(O)CO)n(C)c1=O (configuration not stated)
→ -4%, -0.2%&-4.6%, -18%, 2%, ?, -10%&-10%&-10%&-10%&-10%&-10%, 11%, -6%&5%
#51 CCOC(=O)c1c(S(=O)(=O)NCC(=O)NCc2ccc(C)cc2)c(C)n(C)c1C
→ 0%, 2.4%, 12%[46.1 µM], -2%, 53%&6%[activator], ., 0%, 0%
#52 O=C(CCN1C(=O)CSC1=O)Nc1ccccc1
→ -1%, 2.6%, 19%, 1%, -3%, 25%[46.1 µM], 13%, 2%

High-throughput results deposited in PubChem BioAssay by National Center for Advancing Translational Sciences (NCATS).
